Source: PubChem (Johns Hopkins Ion Channel Center)
KCNQ2 pot: KCNQ2 (rat) channel potentiation. O88943. CHO-K1 KCNQ2, FluxOR thallium flux fluorescence; stronger effect = higher value. B-score at 10 µM. actives 0.54% (n = 310,000);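 active = fluorescence ratio B-score at least 3 SD of library B-scores, with initial fluorescence B-score within 3 SD, cut at about 5.3 in these data; same plate scores as AID 2156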;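 also: B-score of peak minus minimum over baseline fluorescence ratio after K+ and Tl+ stimulus; positive B-score means potentiation of KCNQ2 with more thallium influx and brighter signal; only the inactives scoring about 0 or higher are listed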
Target sequence (O88943 whole entry, looked up): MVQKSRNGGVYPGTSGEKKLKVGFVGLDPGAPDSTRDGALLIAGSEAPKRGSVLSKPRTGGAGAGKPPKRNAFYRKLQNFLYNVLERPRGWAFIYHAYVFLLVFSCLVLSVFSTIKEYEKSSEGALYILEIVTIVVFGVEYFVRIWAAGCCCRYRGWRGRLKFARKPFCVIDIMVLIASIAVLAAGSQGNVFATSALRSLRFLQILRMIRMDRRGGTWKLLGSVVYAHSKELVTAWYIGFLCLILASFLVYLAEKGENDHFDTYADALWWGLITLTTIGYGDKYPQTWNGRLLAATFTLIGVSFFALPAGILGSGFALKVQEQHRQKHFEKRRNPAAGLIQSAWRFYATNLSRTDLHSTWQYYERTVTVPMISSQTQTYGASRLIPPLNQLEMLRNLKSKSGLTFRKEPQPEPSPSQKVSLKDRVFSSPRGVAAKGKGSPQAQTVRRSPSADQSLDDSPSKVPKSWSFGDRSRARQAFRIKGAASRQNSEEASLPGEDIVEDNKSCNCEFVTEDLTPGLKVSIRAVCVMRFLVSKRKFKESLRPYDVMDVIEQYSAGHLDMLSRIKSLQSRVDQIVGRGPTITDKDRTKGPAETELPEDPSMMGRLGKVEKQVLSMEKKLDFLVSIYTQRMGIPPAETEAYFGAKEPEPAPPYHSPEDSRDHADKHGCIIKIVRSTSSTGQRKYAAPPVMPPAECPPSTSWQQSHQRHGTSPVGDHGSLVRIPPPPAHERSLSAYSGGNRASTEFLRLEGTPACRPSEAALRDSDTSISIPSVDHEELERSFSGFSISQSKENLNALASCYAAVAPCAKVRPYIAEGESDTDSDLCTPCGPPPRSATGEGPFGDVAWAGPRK
KCNQ2 pot baseline: further read-out of KCNQ2 pot, marked with its call; B-score; compound at 10 µM; measured here: initial fluorescence intensity artifact check;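 brightness before thallium and not channel activity; 0 = typical well and far values either way flag optical interference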
Numbers without * were called inactive. An excerpt, so the mix of outcomes need not match the whole.

SMILES | KCNQ2 pot | KCNQ2 pot baseline
COc1ccc(C2NC(=O)C(C#N)=C(S)N2c2ccc(C)cc2)cc1OC (configuration not stated) | 1.55 | -0.48
CC1CC(C)CN(C(=O)CSc2nnc(N)s2)C1 (configuration not stated) | 0.68 | 2.28
COc1ccc(NC(=O)c2cnc3n(c2=O)CCS3)cc1OC | 0.11 | 1.68
COc1cccc(C2c3[nH]c4ccccc4c3CCN2C(=O)Cn2cncn2)c1OC (configuration not stated) | 1.11 | -0.81
CNc1nc(Nc2ccc(C)c(Cl)c2)nc(N)c1[N+](=O)[O-] | 2.46 | 0
Cc1ccc(C(=O)OC2=CC(=O)CC(C)(C)C2)cc1 | 0.01 | -0.31
CC(=O)c1c(C(C)=O)c(C)n(-c2ccc(O)cc2)c1C | 0.08 | -1.34
Cc1cccc(NC(=O)CN2CCCCCC2)c1 | 0.03 | -0.86
O=C(c1ccc(F)cc1)N1CCC(n2nnc3ccccc32)CC1 | 0.27 | 0.09
COC(=O)Cn1cnc2c(C#N)c3n(c2c1=O)CCCC3 | 1.32 | -0.03
Cc1nnc(SCC(=O)N2CCc3ccccc32)n1-c1ccccc1 | 1.38 | -1.76
COc1ccc(/C=N/NC(=O)c2cc(C)oc2C)cc1OCc1ccccc1 | 0.27 | -0.95
COc1ccc(NC(=O)C(=S)N2CCCC2)cc1 | 0.78 | 1.02
COc1ccc2[nH]c(=O)c(NC(N)=S)nc2c1 | 0.41 | 1.04
COn1c(C)c(C(C)=O)c2c3no[n+]([O-])c3ccc21 | 1.3 | 0.5
CSc1nnc(-c2cc(C)on2)n1-c1ccccc1 | 0.71 | -0.33
CCCOC(=O)c1ccc(NC(=O)C(=O)NCC2CCCO2)cc1 (configuration not stated) | 0.26 | -0.55
C=CCOc1ccc(/C(O)=C2\C(=O)C(=O)N(CCCOC)C2c2ccncc2)cc1 (configuration not stated) | 0.42 | 1.25
O=C(COC(=O)COc1cccc(F)c1)NCCC1=CCCCC1 | 1.42 | 0.04
CCn1c(NCc2ccco2)nc2c1c(=O)n(C)c(=O)n2C | 1.36 | -0.52
CCN(CC(=O)NCc1cccs1)S(=O)(=O)c1ccc([N+](=O)[O-])cc1 | 0.01 | 0.07
Cc1ccc(C(=O)N/C(=C\c2ccc(Br)cc2)c2nc(=S)[nH][nH]2)cc1 | 2.51 | -2.09
O=C(NCC1CCCO1)C1CCN(S(=O)(=O)N2CCCC2)CC1 (configuration not stated) | 0.62 | -0.25
C=CCN(Cc1cc(OC)ccc1OC)C(=O)c1cc2ccc(OC)cc2[nH]1 | 0.1 | -0.02

Reprinted from the part before: two entries, then new ones.
SMILES | KCNQ2 pot | KCNQ2 pot baseline
O=C(NCC1CCCO1)C1CCN(S(=O)(=O)N2CCCC2)CC1 (configuration not stated) | 0.62 | -0.25
C=CCN(Cc1cc(OC)ccc1OC)C(=O)c1cc2ccc(OC)cc2[nH]1 | 0.1 | -0.02
COc1ccc(CCNc2oc(-c3cccc4ccccc34)nc2P(=O)(OC)OC)cc1OC | 0.67 | 0.94
Cc1c(CC(=O)O)c(=O)oc2c(C)c3occ(-c4ccccc4)c3cc12 | 1.38 | -1.07
COc1ccnc(Nc2ccc(C)c(C)c2)c1C#N | 0.59 | -1.87
CCc1ccccc1NC(=O)CSc1nc(C)c(C)o1 | 0.97 | -0.6
O=C(CN1CCOCC1)NN=C1CCCCCCCCCCC1 | 0.08 | -0.08
COc1cccc(COC(=O)C2CCN(S(=O)(=O)c3cccs3)CC2)c1OC | 1.11 | 0
CNC[C@H](CC1CCCCC1)NC[C@H](CO)NCC1(c2ccccc2)CC1 | 0.01 | 0.43
Cc1nc(-c2ccc(F)cc2)c(CC(=O)N(C)CC(=O)Nc2ccccc2Br)s1 | 0.61 | 0.25
Cc1ccccc1NC(=O)c1cc2ccccc2o1 | 0.01 | -1.44
CCCCc1ccc(NC(=S)NCc2cccc(OC)c2)cc1 | 0.09 | 0.07
CC(C)(C)NC(=O)C1c2ccccc2Oc2ccccc21 | 0.05 | -1.47
O=C(Nc1ccccc1Cl)N1CCCN(c2nc(-c3ccccc3)ns2)CC1 | 0.94 | -0.18
C=CCNC(=O)CC(=O)N/N=C/c1ccccc1F | 0.07 | 0.63
CCCCN(C)CCCNC(=O)CCn1nc(-c2ccccc2)ccc1=O | 0.26 | -0.92
Cc1ccc(C(=O)N2CCN(C(=O)CN3CCCC3)C2)cc1 | 1.76 | -0.65
CN1CCN(Cc2oc(CO)cc(=O)c2O)CC1 | 0.15 | -0.3
O=c1[nH]nc2c3ccccc3cnn12 | 1.04 | -1
CCCCC(=O)NC(NC(=O)CCCC)c1ccc(OCCC)c(OC)c1 | 0.83 | -0.01
COc1ccc([C@@H]2[C@H]3C(=O)N(c4cccc(C(F)(F)F)c4)C(=O)[C@H]3ON2C)cc1 | 0.95 | 0.53
CCN(CC(=O)Nc1ccc2c(c1)OCO2)Cc1nc2ccccc2c(=O)[nH]1 | 1.51 | -1.11
Cc1cc(OC(=O)C(C)(C)C)c([N+](=O)[O-])c(=O)[nH]1 | 0.52 | 1.23
COc1ccc(Sc2cc(C(F)(F)F)nc(-c3ccccn3)n2)cc1 | 1.34 | -0.3
COC(=O)c1cccc(NS(C)(=O)=O)c1 | 0.23 | -1.68
COc1ccccc1N1CCN(Cc2cccs2)CC1 | 0.38 | -1.12

Some of these compounds in order of the KCNQ2 pot value, highest first.
SMILES	KCNQ2 pot
Cc1ccc(C(=O)N2CCN(C(=O)CN3CCCC3)C2)cc1	1.76
COc1ccc(Sc2cc(C(F)(F)F)nc(-c3ccccn3)n2)cc1	1.34
COc1ccc([C@@H]2[C@H]3C(=O)N(c4cccc(C(F)(F)F)c4)C(=O)[C@H]3ON2C)cc1	0.95

(cont.)
SMILES | KCNQ2 pot | KCNQ2 pot baseline
C=CCNC(=O)CC1Nc2c3ccccc3nc(=S)n2C1=O (configuration not stated) | 0.83 | -0.91
COc1cc(OC)cc(C(=O)Nc2c(F)cccc2F)c1 | 1.45 | -0.03
CCc1c(C(=O)N2CCN(c3ccccc3F)CC2)[nH]c(C)c1C(C)=O | 1.55 | -1.71
Cc1ccc(N2C(=O)CC(NNc3nc4ccccc4s3)C2=O)cc1C (configuration not stated) | 0.14 | -2.33
CC(=O)c1csc(COc2cc(Cl)cc(Cl)c2)n1 | 0.72 | -1.48
COc1ccc(-c2[nH]ncc2CN2CCCC(C(=O)c3cccc(OC)c3)C2)cc1 (configuration not stated) | 0.83 | -0.26
CC(C)c1ccc(N2C(=O)C(Cl)=C(N3CCOCC3)C2=O)cc1 | 0.16 | -1.59
CC(C)Oc1ccccc1/C=N/NC(=O)C1CCCC1 | 0.12 | 1.14
O=C1c2ccccc2C(=O)N1c1ccc(S(=O)(=O)N2CCCCC2)cc1 | 1.07 | -2.26
Cc1c(/C=N/NC(=O)c2ccc3c(c2)OCO3)cnn1C | 0.82 | -0.19
COc1ccccc1-c1nnc(NC(=O)Cc2ccccc2)o1 | 1.39 | -0.07
Cc1ccc(NC(=O)N2CCC(C(=O)NCc3ccc(F)cc3)CC2)cc1 | 0.07 | -0.32
COCC(=O)Nc1cccc2ccccc12 | 1.4 | -1.27
COc1ccccc1NC(=O)c1ccc(NC(=O)COC(=O)C(C)C)cc1 | 1.32 | -1.28
COC(=O)Nc1cc(C(=O)c2ccc(Cl)cc2Cl)c[nH]1 | 0.52 | 1.38
Fc1ccccc1CN1CCN(c2ncccn2)CC1 | 0.76 | -0.92
Cc1cc(=O)oc2cc(NC(=O)Cc3ccccc3[N+](=O)[O-])ccc12 | 1.27 | -0.02
CC1(OC(=O)C2CCCC2)C(=O)C=C2C=C(c3ccsc3)OC=C2C1=O (configuration not stated) | 0.31 | -0.39
Cc1cccc(OCCC(=O)Nc2ccc(Cl)cc2F)c1 | 2.85 | 1.16
O=C(O)c1cccc(C(=O)Cc2ccccc2)c1 | 1.18 | -0.63
CCc1c(O)nc(N2CCN(Cc3ccccc3)CC2)[nH]c1=O | 0.23 | -1.28
Cc1c([N+](=O)[O-])c2ccc(O)cc2n1-c1ccccc1 | 0.04 | 0.05
CC(=N\O)/C(CN(C)C)=N/O | 0.27 | 0.05
Cc1ccc(-c2nc3ncccc3o2)cc1NC(=O)c1ccccc1 | 0.73 | -0.88
O=C(CC1C(=O)NCCN1C(=S)Nc1ccccc1)Nc1ccc2c(c1)OCCO2 (configuration not stated) | 1.07 | 1.58
O=C(Cn1c(=O)oc2cc(S(=O)(=O)NCc3ccccc3)ccc21)NCc1ccco1 | 1.08 | 0.02
O=C(NCc1ccco1)/C(=C/c1cccnc1)NC(=O)c1ccco1 | 0.1 | 0.16
CCOc1ccc(/C=N/N2C(=O)C(CC(=O)Nc3ccc(F)cc3F)SC2=NC)cc1OC (configuration not stated) | 0.61 | -0.47
COc1ccc(CCNC(=O)CCNC(=O)c2ccco2)cc1OC | 0.07 | -3.55
Cc1nc(N2CCOCC2)nc(OCCN(C)C)c1[N+](=O)[O-] | 0.16 | 1.56
COc1ccc(-c2csc(NC(=O)C3CC(=O)N(c4ccc5c(c4)OCCO5)C3)n2)cc1 (configuration not stated) | 0.05 | 0.59
O=C(CCN1C(=O)c2cccc3cccc(c23)C1=O)Nc1ccccc1 | 0.16 | -0.38
CC[C@]1(c2ccccc2OC)C(=O)N(C(=O)OC)N1C(=O)OC | 0.35 | 1.88
Cc1ccc(CS(=O)Cc2ccc(C(=O)N3CCN(c4ccccn4)CC3)o2)cc1 (configuration not stated) | 1.02 | 0.25
CC(C)C(O)(CC#CCN1CCCC1)c1ccccc1 (configuration not stated) | 0.88 | 1.81
COc1cc2cc(C(=O)N3CCc4ccccc4C3)[nH]c2cc1OC | 0.04 | -1.34

The final three entries of the part above lead into the next:
SMILES | KCNQ2 pot | KCNQ2 pot baseline
Cc1ccc(CS(=O)Cc2ccc(C(=O)N3CCN(c4ccccn4)CC3)o2)cc1 (configuration not stated) | 1.02 | 0.25
CC(C)C(O)(CC#CCN1CCCC1)c1ccccc1 (configuration not stated) | 0.88 | 1.81
COc1cc2cc(C(=O)N3CCc4ccccc4C3)[nH]c2cc1OC | 0.04 | -1.34
CC(OC(=O)CNS(=O)(=O)c1ccc2ccccc2c1)C(=O)N(C)c1ccccc1 (configuration not stated) | 0.49 | -0.05
COc1ccc(S(=O)(=O)N2CCC(C(=O)NCc3ccccc3)CC2)cc1OC | 0.48 | 1.14
CCC(C)Nc1nc(-c2c[nH]c3ccccc23)cs1 (configuration not stated) | 0.61 | 2.27
CC(C)N(Cc1nccn1C)C(=O)c1cc(COc2ccc(F)cc2Cl)on1 | 0.65 | -0.44
Cc1ccc(N(Cc2cc3ccc(C)cc3[nH]c2=O)S(C)(=O)=O)c(C)c1 | 1.28 | -2.22
CCc1nnc(NC(=O)CN2CCN(Cc3ccc(C)cc3)CC2)s1 | 0.18 | -1.54
O=C(CCCn1c(=S)[nH]c2ccc(Br)cc2c1=O)NCC1CCCO1 (configuration not stated) | 1.12 | -2.16
COc1ccc(-n2c(Cc3cccn3C)nnc2SCC(=O)Nc2nccs2)cc1 | 1.22 | 1.51
O=C(Cc1ccccc1)NCC(=O)N1CCC1 | 0.35 | -0.84
O=C(NNc1cccc(Cl)n1)Nc1ccccc1Cl | 0.05 | 1.44
c1ccc(Cn2nnc3c(NCc4ccc5c(c4)OCO5)nc(C4CC4)nc32)cc1 | 1.61 | -0.41
CN(C)C(=O)c1cc(C(=O)c2ccccc2F)c[nH]1 | 0.68 | 0.93

Reformatted with each value named: part of the list above.
Cc1ccccc1NC(=O)c1cc2ccccc2o1
  KCNQ2 pot: 0.01; KCNQ2 pot baseline: -1.44

CCCCc1ccc(NC(=S)NCc2cccc(OC)c2)cc1
  KCNQ2 pot: 0.09; KCNQ2 pot baseline: 0.07

CC(C)(C)NC(=O)C1c2ccccc2Oc2ccccc21
  KCNQ2 pot: 0.05; KCNQ2 pot baseline: -1.47

(cont.)
SMILES | KCNQ2 pot | KCNQ2 pot baseline
COc1ccc(Cl)cc1N1C(=O)C2CCCN2C1c1cccc(F)c1 (configuration not stated) | 0.27 | 0.34
Cc1[nH]c(C)c(S(=O)(=O)N2CCCCC2)c1C(=O)N1CCCCC1 | 1.38 | -0.42
O=C(O)C1CCCN1S(=O)(=O)c1ccc(Br)cc1 (configuration not stated) | 0.71 | 0.22
COc1ccccc1-n1cc(C(=O)NCC(=O)NCc2ccc(F)cc2)c2ccccc2c1=O | 0.02 | 0.2
COc1cc(OC)c(CN2CCCCCCC2)cc1Br | 0.09 | 2.43
CCC1CCc2c(sc(NC(=O)C3CC=CCC3C(=O)O)c2C#N)C1 (configuration not stated) | 1.7 | 2.82
N/C(=N\OC(=O)CC1CCCCC1)c1cccc([N+](=O)[O-])c1 | 10.4* | -0.6*
CN(C)C(=O)c1nc2ccc(Cl)cn2c1CNCc1cccc(OC(F)(F)F)c1 | 0.33 | -0.77
CCN(CC)CCNC(=O)CCc1n[nH]c(=O)c2ccccc12 | 0.83 | 0.56
CCSc1nnc(NC(=O)COc2ccccc2)s1 | 0.63 | -0.21
COc1ccc(/C=C2/CC/C(=C\c3ccc(OC)c(OC)c3OC)C2=O)c(OC)c1OC | 0.01 | -0.94
O=C(NC(=S)Nc1ccc(C(=O)N2CCOCC2)cc1)c1ccc([N+](=O)[O-])cc1 | 1.02 | -1.32
CC/C(O)=C1\C(=O)CC(c2ccccc2)CC1=NCCc1c(C)[nH]c2ccc(C)cc12 (configuration not stated) | 1.27 | 0.38
COc1cc(/C=C/c2nc3ccccc3c(=O)[nH]2)ccc1OC(F)F | 0.11 | 1.3
COC(=O)CN1C(C)=Nc2ccc(Br)cc2C1c1ccccc1 (configuration not stated) | 0.32 | -0.86
O=C1CCCC2=C1C1c3ccccc3C(=O)N1c1ccc(C(=O)c3ccccc3)cc1N2 (configuration not stated) | 0.41 | -0.84
COc1cccc(/C=C2\SC(N)=NC2=O)c1OS(=O)(=O)c1ccccc1 | 0.25 | -0.09
COc1ccc(-c2nc3c(c(=O)c4ccccc4n3C)c(=O)n2Cc2ccccc2)cc1 | 0.41 | -0.57
CC(C)c1cc(C(=O)OCC(=O)N2CCN(C(=O)c3ccco3)CC2)c(O)c(C(C)C)c1 | 0.01 | -1
